Sfp PPTase inh: blocks B. subtilis Sfp PPTase activity; Q9F4F7; Biochemical Sfp PPTase activity, qHTS; Potency, µM, inactives show max response, negative = inhibition, most hits filed as inhibitors; actives 3.5% (n = 310,000); AID 1490; active = well fitted inhibition curve with a large enough effect; inconclusive = small, poorly fitted or top-dose-only effect, or another doubt; inactive = no such curve, though single readings can be large or run the other way;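 note: the enzyme is Sfp with the accession as filed and its product quenches rhodamine fluorescence; potency is the fitted concentration of half-maximal effect; 0% = enzyme reaction without inhibitor and -100% = no enzyme wells; top concentration of the series not given in the record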
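Fluorescence-quenching assay with 15 nM Sfp, 5 uM rhodamine-CoA and 12.5 uM BHQ-2-labelled ybbR peptide in pH 7.6 Hepes/MgCl2 buffer. Enzyme was pre-incubated with compound for 15 min at room temperature. Rate was taken from the 30-min fluorescence change (525/598 nm).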
ClpP mod: qHTS Assay for Activators of ClpP; purified B. subtilis ClpP, FRET peptide cleavage, 20 min; Potency, µM (titrated, usually from 57.5 µM), for the others: at the highest dose activity change, negative = active; actives 1.9% (n = 340,000); AID 651965, 2013; active = well fitted falling curve with a large enough effect; inconclusive = small, poorly fitted or top-dose-only effect; inactive = no such curve, though single readings can be large or run the other way; note: potency is the fitted concentration of half-maximal effect; the source files actives as falling curves though it sought activators and does not explain the sign; nearly all actives have a fitted effect of over 65% in size; many hits overshoot -100%
Target sequence (P80244 whole entry, looked up): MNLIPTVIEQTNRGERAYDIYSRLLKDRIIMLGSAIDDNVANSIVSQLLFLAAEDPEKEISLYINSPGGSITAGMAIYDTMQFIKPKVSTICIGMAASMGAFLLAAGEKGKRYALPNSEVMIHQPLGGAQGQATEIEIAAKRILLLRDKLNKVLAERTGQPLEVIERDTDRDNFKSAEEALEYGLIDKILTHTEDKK
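Purified B. subtilis ClpP, 10 microg/mL final in Tris/HCl pH8 with KCl, BSA, glycerol and Tween-20, cleaved an Abz/nitrotyrosine-quenched decapeptide. Fluorescence (ex 320, em 430) was read at 0 and 20 min at room temperature. Delta was normalized to 5.8 microM ADEP and DMSO/no-enzyme controls.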
PINK1 expr mod: changes PINK1 expression; Potency, µM (top dose mostly 76.6 µM), for inactives: top-dose activation (PINK1 increase), most hits filed as activators; AID 624263; actives 0.2% (n = 410,000); PINK1 immunofluorescence, high-content cytometry, 24 h; active = well fitted activation curve with a large enough effect; inconclusive = small, poorly fitted or top-dose-only effect; inactive = flat fitted curve, though single readings scatter; cell line not stated here;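 note: potency is the fitted concentration of half-maximal effect; % of control where 0% means no effect; nearly all actives have a fitted effect of over 65% in size; a mitochondrial uncoupler was the plate control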
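Readout is PINK1 immunofluorescence, quantified alongside mitochondrial, cell and nuclear markers by laser-scanning microplate cytometry. Cells from a stable line were exposed to compound titrations (5 concentrations) for 24 hours, with CCCP controls.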
gsp antagonist: gsp mutant antagonism. gsp-mutant cells, cAMP HTRF, 30 min; control for the full effect not named in the record. Potency, µM (top dose mostly 76.9 µM), for the others: at the highest dose activity change, negative = inhibition, actives largely listed as inhibitors. actives 0.4% (n = 340,000). AID 624288; active = falling curve of any shape with a large fitted effect; inconclusive = falling curve, mostly with a smaller effect; inactive = flat or rising curve; cell line not stated here;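 note: intracellular cAMP measured with PDE inhibitor Ro 20-1724 present during compound exposure; potency is the fitted concentration of half-maximal effect; % is set by controls: 0 for no effect and ±100 for the full control effect; nearly all actives have a fitted effect of over 65% in size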
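G418-selected cells were plated in DMEM/10% FBS for 16-24 h at 37C, then treated with compounds plus the PDE inhibitor […] (300 uM solution added) for 30 min at 37C. Intracellular cAMP was measured by HTRF after 30 min lysis at room temperature.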
D2 ag: human D2 receptor agonism in beta-arrestin assay. DiscoveRx PathHunter D2 beta-arrestin, luminescence, 90 min; 100% = 57 uM dopamine signal. activation, % (concentration not given with the values). actives 0.084% (n = 360,000). AID 624465; in the data active = activation above about 40%; inconclusive = about 15% to 40%; inactive = below about 15%; note: compound concentration not given in the record; the text of the record calls up to 30% inactive
Target sequence (P14416 whole entry, looked up): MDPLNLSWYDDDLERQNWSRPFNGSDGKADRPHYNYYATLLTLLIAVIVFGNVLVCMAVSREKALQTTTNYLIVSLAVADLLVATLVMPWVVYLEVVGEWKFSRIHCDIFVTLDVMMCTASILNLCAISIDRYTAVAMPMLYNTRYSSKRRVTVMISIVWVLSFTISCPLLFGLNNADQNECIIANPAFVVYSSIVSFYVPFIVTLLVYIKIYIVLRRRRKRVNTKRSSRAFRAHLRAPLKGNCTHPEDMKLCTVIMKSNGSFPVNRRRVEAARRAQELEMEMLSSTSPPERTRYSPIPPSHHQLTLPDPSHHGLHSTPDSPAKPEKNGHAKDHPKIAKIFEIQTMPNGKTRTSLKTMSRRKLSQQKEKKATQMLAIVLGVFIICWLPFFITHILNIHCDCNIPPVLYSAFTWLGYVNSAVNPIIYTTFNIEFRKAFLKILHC
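DiscoveRx PathHunter D2 beta-arrestin cells (2,100/well) attached overnight, then compound-stimulated 90 min at 37 C in HBSS/10 mM HEPES/0.1% Tween-20 buffer; beta-galactosidase complementation read by luminescence after 1 h at ambient temperature. Dopamine 57 uM final (EC100) as control.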
gsp ag: gsp mutant agonism. Potency, µM (top dose mostly 76.9 µM), without a hit: at the highest dose activation (cAMP increase), most hits filed as activators. actives 0.13% (n = 340,000). gsp mutant cells, cAMP HTRF, 30 min; control for the full effect not named in the record; active = well fitted activation curve with a large enough effect; inconclusive = small, poorly fitted or top-dose-only effect, or another doubt; inactive = no such curve, though single readings can be large or run the other way; cell line not stated here;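 note: phosphodiesterase inhibitor Ro 20-1724 added with compounds to block cAMP breakdown; potency is the fitted concentration of half-maximal effect; nearly all actives have a fitted effect of over 60% in size; about a fifth of the inactives were tested at one dose only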
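Cells in DMEM/10% FBS with G418 were pretreated with compounds in DMSO plus […] (300 uM stock) for 30 min at 37C. cAMP was measured by HTRF (cAMP-d2 plus anti-cAMP antibody-K) after 30 min at room temperature.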
Menin MLL FP FL: inhibitors of human menin-MLL interaction, wild-type MLL peptide | 290,000 tested, under 10 active | Fluorescence polarization, fluorescein-MLL peptide displacement from menin | FP activity change, % at 61.4 µM | AID 1766; inconclusive = falling polarisation curve, or a change in total fluorescence; inactive = total fluorescence flat and polarisation flat or rising; no compound was filed as active; the % refers to the polarisation; negative = inhibition;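 note: % of control where 0% means no effect; inhibitors lower the polarisation; unlabelled MLL peptide was the positive control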
An asterisk follows results filed as active; ? = inconclusive; . = not tested or not shown; & = joins results of further samples; [ ] = dose if it differs, or a comment.

SMILES	Sfp PPTase inh	ClpP mod	PINK1 expr mod	gsp antagonist	D2 ag	gsp ag	Menin MLL FP FL
CCC(C)N(C(=O)COC(=O)CCc1c[nH]c2ccccc12)C1CCS(=O)(=O)C1 (stereo not drawn)	-8%	0.6%	0.4%	-10%	-4.5	-16%	1.5
Cc1cccc(N(C)S(=O)(=O)c2ccc(-c3cc(C)no3)s2)c1	-5%	-0.1%&2.1%	4.1%&3.7%	30%	-0.6	24%	-0.1
COc1ccc(S(=O)(=O)NCC2CCC(C(=O)NCCC(C)C)CC2)cc1 (stereo not drawn)	-4%	-2.4%	-2.9%	-7%	4.2	-6%[15.4 µM]	0.7
CCC(=O)C1=C(O)C(c2cccc(Oc3ccccc3)c2)CCC1=O (stereo not drawn)	16%	-2.2%	-1.0%	-7%	5.0	-48%[inhibitor]	-5.4
N#Cc1cc2c(nc1SC1CC(=O)N(c3ccccc3)C1=O)CCC2 (stereo not drawn)	-8%	?	2.3%	-3%	-1.6	-1%[15.4 µM]	2.6
CCOc1ccc(/C=N/NC(=O)c2cc(-c3cccn3C)n[nH]2)cc1	9%	.	-1.3%	-14%	3.4	9%[15.4 µM]	1.1
COCCNC(=S)NNC(=O)CSCc1ccc(Cl)cc1Cl	12%	.	-2.1%	.	-10.0	11%[15.4 µM]	-2.7
COc1cccc(CNC(=O)C(=O)NCC2CCCO2)c1 (stereo not drawn)	9%	-0.1%	-0.8%	13%	-3.0	0%	3.8
O=C(NCCCO)C(=O)Nc1cc2c3c(c1)CCN3C(=O)CC2	4%	0.0%	0.6%	7%	4.3	-20%	-2.2
O=C(COC(=O)c1ccc(F)cc1F)Nc1ccc2c(c1)OCO2	.	-6.4%	0.2%	.	-1.2	-44%[inhibitor]	.
NS(=O)(=O)c1ccc(CCNC(=O)/C=C/c2cccc([N+](=O)[O-])c2)cc1	0%	.	-1.5%	5%	-2.0	-43%[inhibitor]	0.9
COc1ccc(OC)c(NC(=O)CSc2nc(C)cs2)c1	13%	-0.4%	.	-10%	-3.6	-14%	1.8

3 compounds already listed, sorted by the value under Sfp PPTase inh, ascending.
molecule,Sfp PPTase inh,PINK1 expr mod,gsp antagonist,D2 ag,gsp ag,Menin MLL FP FL
CCC(C)N(C(=O)COC(=O)CCc1c[nH]c2ccccc12)C1CCS(=O)(=O)C1 (stereo not drawn),-8%,0.4%,-10%,-4.5,-16%,1.5
NS(=O)(=O)c1ccc(CCNC(=O)/C=C/c2cccc([N+](=O)[O-])c2)cc1,0%,-1.5%,5%,-2.0,-43%[inhibitor],0.9
COc1cccc(CNC(=O)C(=O)NCC2CCCO2)c1 (stereo not drawn),9%,-0.8%,13%,-3.0,0%,3.8

Following part:
SMILES	Sfp PPTase inh	ClpP mod	PINK1 expr mod	gsp antagonist	D2 ag	gsp ag	Menin MLL FP FL
O=C1N2CCCc3cccc(c32)C12Nc1ccccc1S2 (stereo not drawn)	50µM*	-1.9%	0.2%	-1%	1.3	-21%	5.7
COCc1cc(=O)[nH]c(SCCS(=O)(=O)c2ccc(C)cc2)n1	-8%	-2.4%	3.0%	-2%	-4.5	-8%[15.4 µM]	2.8
COCCCN(C(=O)C1CCCCC1)c1c(N)n(Cc2ccccc2)c(=O)[nH]c1=O	.	-1.7%	2.0%	8%	-1.4	-18%	.
CCSc1nc(C)c(C)c(=O)[nH]1	11%	.	0.2%	9%	0.2	?	3.0
O=C(CCC1CCCC1)NCCS(=O)(=O)N1CCN(c2ccccc2F)CC1	.	.	2.2%	-6%	-2.3	5%[15.4 µM]	.
Cn1c(=O)[nH]c2c(c(C(=O)O)nn2C)c1=O	.	.	0.5%	12%	-0.2	-21%	.
COc1cc(C(=O)Nc2ccc(C(N)=O)cc2)c([N+](=O)[O-])cc1OC	-27%	-1.2%	-0.8%	6%	-2.7	-13%	2.0
COC(=O)C1=C(CS(=O)(=O)c2ccc(OC)cc2)NC(=O)NC1c1ccccc1 (stereo not drawn)	3%	0.0%	0.2%	6%	-3.6	8%	0.0
O=C(Nc1c(-c2ccc3c(c2)OCO3)[nH][nH]c1=O)c1ccc2c(c1)OCO2	.	-9.2%	-0.3%	.	-4.1	.	.
CC1CN(C(=O)CCC(=O)NCc2ccccn2)c2ccccc2O1 (stereo not drawn)	11%	-0.6%	2.0%	11%	-4.8	3%	-4.4
Cc1cc(NC(=O)c2ccc(Br)cc2)nc(C)n1	-1%	0.2%	-0.2%	16%	-0.9	3%[15.4 µM]	0.4
O=C(Nc1ccccc1-c1ccccc1)c1ccco1	8%	-1.1%	-0.1%	12%	-3.7	-7%	-1.9
COc1cc(CN2CCCN(C)CC2)cc([N+](=O)[O-])c1O	?	-0.3%	-1.2%	-24%	-2.7	32%[15.4 µM]	3.7
CC(C(=O)Nc1ccccc1)N(C)Cc1cccs1 (stereo not drawn)	9%	.	1.2%	10%	-3.8	-1%[15.4 µM]	0.6
CCNS(=O)(=O)c1ccc(NC(=O)c2ccc(Cn3cc([N+](=O)[O-])cn3)o2)cc1	1%	.	2.1%	-6%	1.0	?	?
COc1ccc(S(=O)(=O)C(C#N)c2nc3ccccc3nc2N2CCCC(C)C2)cc1 (stereo not drawn)	5%	-5.9%	-1.1%	?	0.7	-29%	?
CC(C)COc1cccc(C(=O)N2CCN(C(=O)c3ccco3)CC2)c1	.	-0.7%	-0.5%	-4%	5.6	1%	.
Cc1ccc(OCc2cc(C(=O)N(C)CCn3ccnc3C)no2)cc1C	.	-13%	-0.6%	11%	-2.1	9%	.
COc1ccc(Nc2nc(-c3sc(N)nc3C)cs2)cc1	18µM*	0.6%	11%	-11%	-5.1	-16%	16
COC(=O)c1ccc(OC(C)C(=O)c2ccc(C)cc2)cc1 (stereo not drawn)	-1%	1.1%	1.0%	-10%	-1.5	17%	8.5
CCCCn1c(SCC(=O)OCC)nnc1-c1ccoc1C	2%	0.2%	-0.2%	3%	-0.5	-8%	2.2
CCCn1nnc(NC(=S)NC(=O)C(C)(C)C)n1	50µM*	-0.4%	2.4%	13%	-6.5	-19%	0.4
CCN1C[C@@H]2[C@@H]3C(=O)N(Cc4ccccc4)C(=O)[C@@H]3[C@](Cc3ccccc3)(C1=O)N2C(=O)c1ccc(C(C)(C)C)cc1	.	1.3%	?	?	-2.5	-13%	.
CCN(CC)c1ccc(NC(=O)COc2ccc(C)cc2)cc1	-10%	-0.6%	0.3%[38.3 µM]	5%	3.6	-10%	2.3
CCOC(=O)c1sc(=S)n(C)c1NC(=O)c1cccc(Br)c1	18µM*	-1.5%	40µM*	-28%	-5.7	-11%[15.4 µM]	18
COCCCn1c(SCC(=O)N2CCOCC2)nc2ccccc2c1=O	7%	.	-0.1%	6%	-0.9	0%[15.4 µM]	1.3
CN1CCC(N(C)C(=O)CCc2nc3ccccc3c(=O)[nH]2)CC1	-25%	-1.4%	0.9%[38.3 µM]	-3%	-3.1	?	-3.5
Cc1onc(-c2ccccc2)c1C(=O)NCc1ccc(F)cc1	.	0.7%	0.0%	-13%	-6.6	-4%[15.4 µM]	.
COc1ccccc1Cn1c(-c2ccco2)nc2nc3ccccc3nc21	.	-5.9%	?	-5%	-6.0	1%[15.4 µM]	.
O=C(CCc1ccccc1)NCc1cccnc1	18%	-1.6%	-2.0%	11%	-2.1	7%	2.0
CCOC(=O)c1ccc(N2C(=O)C3ON(c4ccccc4)C(c4ccco4)C3C2=O)cc1 (stereo not drawn)	11%	0.7%	-0.1%	-10%	-4.0	11%	0.3
CCCCN(C)CCNC(=O)C1CCN(S(=O)(=O)c2cccc3nsnc23)CC1	5%	2.4%	0.5%	8%	2.9	-28%	.
CCOc1ccc(C(=O)NCC(=O)NCCSc2ccc(Br)cc2)cc1OCC	.	-12%	-0.9%	-25%	-4.8	0%	.
NC(=O)c1ccccc1	20%	0.2%	-1.1%	2%	-4.6	.	-0.1&-3.8
COc1cc(S(=O)(=O)NCC2OCCc3ccccc32)ccc1-n1cnnn1 (stereo not drawn)	7%	-4.3%	-4.4%[38.3 µM]	-24%	2.2	-1%	7.6
COC(=O)c1cc(NC(=O)C2CC(=O)NC(=NCc3ccc(OC)cc3)S2)cc(C(=O)OC)c1 (stereo not drawn)	-2%	.	0.9%	12%	2.0	-7%[15.4 µM]	0.6
CCC1Nc2ncnc(N3CCCCC3)c2N(Cc2ccc(OC)cc2)C1=O (stereo not drawn)	.	-1.9%&-0.8%	4.4%&0.8%	3%	-5.8&-11	-4%	.
O=C(Nc1cccc(Cl)c1)C1=CC=CN2CCS(=O)(=O)N=C12	.	.	-2.9%	-7%	-5.6	-8%	.
COc1cc2c(cc1OC)C(=O)CCS2	-4%	-5.4%	0.9%	1%	-2.2	12%	0.2
CCOC(=O)Nc1cccc(OCC(=O)Nc2ccc3c(c2)CCC3)c1	.	2.3%	9.4%	-14%	9.8	-6%	.
CCc1ccc(/C=C2\SC(=S)N(CCCC(=O)N3CCCC3)C2=O)cc1	.	0.0%	26%	.	-2.2	14%	.
CN(C)S(=O)(=O)c1cccc(NC(=O)c2ccc(S(=O)(=O)N3CCCCC3)cc2)c1	.	0.8%	0.2%	-35%	-2.5	-3%	.
Oc1ccc(/C=N/N=C(c2ccccc2)c2ccccc2)c(O)c1O	2.8µM*	?	-0.7%	-28%	9.1	5%	0.6
COc1cc(NC(=O)COc2ccc(Cl)cc2)ccc1NC(=O)C(C)C	31%[activator]	.	26%	-2%	-0.4	-25%[15.4 µM]	5.2
CN(C(=O)CSc1ccc2c(c1)OCCO2)c1ccccc1	.	1.7%	1.2%	2%	-3.4	25%	.
Cc1cc(OC(=O)c2ccc(S(=O)(=O)N3CCCCC3)cc2)c([N+](=O)[O-])c(=O)[nH]1	17%	.	-0.1%	2%	-3.3	?	-2.4
CCN1CCCC1CNC(=O)C(=O)NCc1ccccc1 (stereo not drawn)	14%	.	-0.1%	8%	0.1	-11%	-2.1

Screens from PubChem BioAssay.

Compounds were not picked by outcome; overall some 5.1% were active at least once.
